# Screening data (PubChem BioAssay)
# Calb biofilm kill: clotrimazole potentiators killing C. albicans biofilm, primary screen, 4-compound mixtures. C. albicans biofilm persisters + clotrimazole, fluorescence viability; primary screen in compound mixtures of four per well. inhibition, % at 7.6 µM. hit rate 0.02% among 120,000;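 active means inhibition above 30.3% in the primary screen of four-compound pools, then above 30% when the compound was retested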;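 further: compounds exposed to preformed 24 h biofilms for 48 h; the number belongs to the whole pool; some results filed as inactive read as strong as hits; inactives centre near 12; 0% = biofilm with clotrimazole alone and 100% = kill control; retested singly at about 60 µM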
#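 Test system: C. albicans CAF4-2 wild-type biofilms; buffer or medium: RPMI/MOPS medium, pH 7.0; schedule: 24 h biofilm formation, then 48 h compound exposure, 37 °C; detection: Alamar Blue fluorescence; measure: percent inhibition of biofilm viability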
# Numbers without * were called inactive.
compound | Calb biofilm kill
CCN(CC)C(=O)c1sc(NC(=O)c2c(OC)cccc2OC)c(C#N)c1C | 10.0
Nc1nc(=S)[nH]c2c1C1(CCCCC1)Cc1ccccc1-2 | 7.8
C=C(C)CNC(=S)N/N=C1\CCCCc2ccccc21 | 3.3
COc1cc(C(=O)CCN2CCC(c3ccccc3)C2)cc(OC)c1OC (stereo unspecified) | 5.0
COc1ccc(NC(=O)CCCn2c(=O)c3sccc3n(Cc3ccc(C)cc3)c2=O)cc1 | 14.8
CNS(=O)(=O)c1ccc2nc(NC(=O)/C=C/c3ccco3)sc2c1 | 12.7
Cc1cc(-c2n[nH]c(=S)n2CC(C)C)cs1 | 12.2
O=C(Nc1ccc2[nH]c(=S)sc2c1)Nc1ccccc1F | 12.3
CCc1ccnc(NS(=O)(=O)c2ccc3c(c2)OCCO3)c1 | 5.5
CCCCCC(=O)NC(=S)NNC(=O)c1ccc([N+](=O)[O-])cc1 | 9.9
CCCC(C)C(=O)Nc1ccc(F)c(Cl)c1 (stereo unspecified) | 8.2
O=C(C(Cl)Cl)N1CCN(Cc2ccccc2)CC1 | 20.1
Cc1nn(-c2ncc(C(F)(F)F)cc2Cl)c(=O)n1-c1ccccc1F | 4.4
CC(=O)Nc1nc(C)cs1 | 1.6
Cc1ccc2nc(N3C(=O)C(O)=C(C(=O)c4ccc(C)o4)C3c3cccc(O)c3)sc2c1 (stereo unspecified) | 18.1
CCOC(=O)c1cnc(-c2ccccc2)nc1Oc1ccc(OC)cc1 | 9.7
COc1ccccc1NC(=O)CSc1nnc(CCNC(=O)c2ccc(C)cc2)n1C | 0.3
NS(=O)(=O)c1cccc(NC(=O)CSc2ncnc3ccccc23)c1 | 14.3
CCOC(=O)C1CCN(Cc2nnnn2CCc2ccccc2)CC1 | 4.0
O=C(Nc1cccc(NC(=O)c2sc3ccccc3c2Cl)c1)c1ccco1 | 17.4
CCOc1ccccc1NC(=S)N1CCN(c2nc(-c3cccc(OC)c3)cs2)CC1 | 4.4
Cn1cc(/C=C/C(=O)N2CCCC(C(=O)c3cccc4ccccc34)C2)cn1 (stereo unspecified) | 5.3
Cc1nn(CCC(N)=O)c2nc(-c3cccs3)cc(C(F)(F)F)c12 | 8.0
CCN(CC)S(=O)(=O)c1ccc2c(c1)N(CC(=O)N(CCc1ccncc1)C(C)C)C(=O)CO2 | 16.0
O=C(CN1CCN(c2ccccc2F)CC1)Nc1ccc2c(c1)CCC2 | 19.4
CC[n+]1c(/C=C/c2ccc(N(C)C)cc2)ccc2ccccc21 | 26.4
Cc1nn(C)c(C(=O)NNC(=S)NCc2ccco2)c1Br | 10.8
O=C(CC12CC3CC(CC(C3)C1)C2)N/N=C\c1ccc[nH]1 | 17.4
COc1ccccc1NC(=O)c1ccc(NC(=O)CN2CCCC2)cc1 | 17.0
NC(=O)C1CCN(C(=O)CNC(=O)c2ccccc2)CC1 | 5.0
Cc1ccc(C(=O)NC(=S)NNS(=O)(=O)c2ccc(C)cc2)cc1 | 6.8
Cc1ccc(NC(=O)Nc2nnc(Cc3ccc([N+](=O)[O-])cc3)s2)cc1 | 13.3
CNC(=O)/C(C#N)=C/c1ccc(-c2ccccc2[N+](=O)[O-])o1 | 3.1
CC(=O)NS(=O)(=O)c1ccc(NC(=S)NC(=O)Cc2ccccc2)cc1 | 11.6
CCCNC(=O)CN(c1cccc(F)c1)S(C)(=O)=O | 13.2
O=C(O)c1cccc(NC(=S)NCc2ccccc2)c1 | 2.4
CC(C)(C)n1nnnc1C(c1ccc(F)cc1)N1CCC(C(N)=O)CC1 (stereo unspecified) | 16.8
Cc1cccc(NC(=S)NC(=O)/C=C/c2ccccc2)n1 | 7.0
Cc1cc(CNC(=O)COc2ccc(F)cc2)c2ccccc2n1 | 14.9
CC1Cc2ccccc2N1C(=O)CNc1cccc(S(=O)(=O)N2CCCC2)c1 (stereo unspecified) | 12.1
CCOC(=O)C1=NNC(C(=O)c2ccc(C)cc2)C1c1ccc(C)cc1 (stereo unspecified) | 10.0
Cc1cccc(C)c1NC(=O)CN1C(=O)N(C)Cc2ccccc21 | 13.7
O=C(Cn1cc(C(F)(F)F)ccc1=O)N/N=C/c1ccc(O)cc1 | 4.6
O=C(Cc1ccccc1)Nc1ccc2c(c1)CCC2 | 5.4
O=C(Cc1nc(-c2cnccn2)no1)NNC(=O)Nc1ccccc1 | 25.0
COC(=O)C(=C/C=C/c1cccnc1)C(=O)OC | 3.9
CCc1ccc(C(=O)c2cnc3ccc(OC)cc3c2N2CCN(CC)CC2)cc1 | 6.4
Oc1cc2ccccc2nc1-c1ccccc1Cl | 13.3
Cc1ccnc(NC(=O)c2cccc(NC(=O)Cc3ccccc3)c2)c1 | -0.3
COc1ccc(Br)cc1CNC(=O)Cc1c(C(=O)O)[nH]c2ccc(Cl)cc12 | 14.0
Cc1c(NC(=S)NC(C)(C)C)c(=O)n(-c2ccccc2)n1C | 10.3
C/C(=N\NC(=O)c1cccc(N/N=C(\C)c2ccncc2)c1)c1ccncc1 | 11.6
CC(NC(=O)c1cc2cc([N+](=O)[O-])ccc2oc1=O)C1CCCO1 (stereo unspecified) | 14.2
CN(C[C@H](Cc1ccccc1)N(C[C@H](Cc1ccccc1)N(CC1(c2ccccc2)CC1)N=O)N=O)N=O | 17.0
CC(C)CN1CCN(Cc2cnc(-c3ccc(Cl)cc3)nc2)CC1CCO (stereo unspecified) | 20.5
Cc1nn(Cc2ccc(Cl)cc2)c(C)c1NC(=O)CCCn1nc([N+](=O)[O-])c(Cl)c1C | 15.2
COCc1cc(CN2CCCC(C(=O)c3cccc(C(F)(F)F)c3)C2)ccc1OC (stereo unspecified) | 15.0
CCc1ccccc1N/N=C(/C)c1c(O)cc(C)oc1=O | 17.4
CC(Oc1ccc(Cl)cc1Cl)C(=O)Nc1cccc(O)c1 (stereo unspecified) | -11.7
CCOC(=O)c1cc2c(ccn2C)n1Cc1ccccc1Cl | 12.8

# More entries follow.
compound | Calb biofilm kill
Cc1c(C(=O)Nc2cc(S(=O)(=O)N3CCOCC3)ccc2N2CCN(C)CC2)oc2ccccc12 | 10.0
CCc1[nH]c(=S)c(C#N)c2c1CCCC2 | 17.7
COCCC(=O)N1CCCC(C(=O)c2ccc3c4c(cccc24)CC3)C1 (stereo unspecified) | 8.5
O=C(c1cc([N+](=O)[O-])ccc1N1CCOCC1)N1CCCC1 | 17.2
Cc1ccc(C(=O)OCC(=O)NCc2cccs2)cc1 | 15.4
Cc1nn(CC(=O)c2ccccc2Cl)c(C)c1[N+](=O)[O-] | 3.0
COc1cc(Br)cc(C=Nc2cccc(C(F)(F)F)c2)c1O | 12.3
COc1ccc(CN2C3CCCC2CC(NC(=O)Nc2ccccc2C)C3)cc1 (stereo unspecified) | 16.7
CCN(CC)c1ccc(/C=N/NC(=O)CNC(=O)c2ccccn2)cc1 | 14.7
Cc1nc2ccc(-c3nc4ccccc4[nH]3)cc2[nH]1 | 11.3
CC#CCN1c2ccccc2[C@]23C[C@@H](C(=O)OC)N=C2NC(C(=O)OC)=C(C(=O)OC)[C@H]13 | 13.7
CCOC(=O)N1CCC(N(CCN(C)C)C(=S)Nc2cccc(Cl)c2C)CC1 | 16.6
COc1cc(OC)nc(NC(=O)CS(=O)(=O)c2ccccc2)n1 | 17.7
CCOc1ccc2nc(SCc3ccc(CC(=O)O)cc3)c(C#N)cc2c1 | 7.6
CN(CC(=O)Nc1ccc(Cl)c(Cl)c1)C(=O)C12CC3CC(CC(C3)C1)C2 | 7.2
Cn1c(=O)n(C)c2cc([N+](=O)[O-])c(N3CCN(C(=O)c4ccccc4Br)CC3)cc21 | 16.9
O=C(O)C1C2CCC(C2)C1C(=O)NCCCn1ccnc1 (stereo unspecified) | 9.4
CC(C)OC(=O)c1cccc(C(=O)Nc2cccc(NC(=O)c3cccc(C(=O)OC(C)C)n3)n2)n1 | 6.0
CSc1nc2ccccc2nc1N(C)S(=O)(=O)c1ccc(C)cc1 | -5.8
CC(C)Nc1nnc(SC(C)C(=O)NCc2ccc3c(c2)OCO3)s1 (stereo unspecified) | 0.6
O=C1c2cc(Cl)ccc2OC2(CCNCC2)C12CC(c1ccc(Cl)cc1)=NO2 (stereo unspecified) | -0.8
CCN(CC)S(=O)(=O)c1ccc(N/N=C(\C)c2ccc(OC)cc2O)nc1 | 14.5
COc1ccc(-c2nc(N=Nc3ccc(O)cc3)n[nH]2)cc1 | 6.4
CSc1cccc(CN2CCN(Cc3ccccc3)C(CCO)C2)c1 (stereo unspecified) | 20.0
COc1ccc(/C=C(/CC(=O)Nc2ccccc2)c2nc3ccccc3s2)cc1 | 9.2
O=C(NNS(=O)(=O)Cc1ccccc1)c1ccc([N+](=O)[O-])cc1 | 10.6
COc1ccc(-c2c(=O)n(OCc3nc4ccccc4[nH]3)c3ccccc3[n+]2[O-])cc1 | 8.2
NC(=O)Cn1c(=O)n(-c2ccccc2)c(=O)c2oc3ccccc3c21 | 8.5
CCOC(=O)C1(CCOc2ccccc2)CCN(Cc2ccc3c(c2)OCCO3)CC1 | 16.4
CC(/C=N/NC(=S)Nc1cccc(S(=O)(=O)N(C)C)c1)c1ccccc1 (stereo unspecified) | 8.5
O=C(CSc1nc2nc(-c3cccs3)cc(C(F)(F)F)c2c(=O)[nH]1)Nc1c(F)c(F)c(F)c(F)c1F | 19.7
Cn1c(=O)c(=O)n(C)c2cc(S(=O)(=O)NCCN3CCN(c4ccccc4F)CC3)ccc21 | 19.5
CC1CN(S(=O)(=O)N2CCOCC2)CCN1S(=O)(=O)N1CCOCC1 (stereo unspecified) | 6.4
COC(=O)CNC(=O)c1cccc(Cl)c1 | 16.7
Nc1ccc2c(c1)Nc1ccccc1CC2 | 18.7
CN1C=C/C(=C\c2cc[n+](C)c3ccccc23)c2ccccc21 | 31.6
CN(c1ccccc1C(=O)NC1CCCCC1)S(=O)(=O)c1ccccc1 | 17.3
Cc1nc(C(F)(F)F)nc(Nc2ccc(N=Nc3ccccc3)cc2)c1C#N | 0.4
O=C(Nc1ccncc1)c1cc(-c2ccccn2)nc2ccc(Br)cc12 | 27.8
COc1ccc(Cl)cc1NC(=O)C(C)N1CCc2ccccc21 (stereo unspecified) | 10.0
C/C(CC(=O)Nc1cccnc1)=N/NC(=O)COc1ccc(Cl)cc1Br | 7.2
CCC(C)NC(=O)CN(C1CCCCC1)S(C)(=O)=O (stereo unspecified) | 4.5
CCOc1ccc(N2CC(C(=O)NC3=NCCS3)CC2=O)cc1 (stereo unspecified) | 28.1
Cc1cc2ccccn2c1C(=O)c1nc(NCc2ccccc2)ncc1Cl | 14.5
Cc1ccnn1CC(=O)N/N=C/c1ccc([N+](=O)[O-])s1 | 17.9
Clc1ccc(N2COC3c4cccc5cccc(c45)C32)cc1 (stereo unspecified) | 6.9
S=c1[nH]c(-c2ccccc2)cn1/N=C/c1ccccc1Br | 3.5
Cc1ccc(CN(C(=O)c2csnn2)C(C(=O)NC2CCCC2)c2ccc(C)o2)cc1 (stereo unspecified) | 9.6
Cc1ccc(S(=O)(=O)N(CC(=O)N2CCCC2)C2CCCCC2)cc1 | 1.7
COCCCNC(=O)c1cc2cc([N+](=O)[O-])cc(OC)c2oc1=O | 6.1
Cc1ccc(S(=O)(=O)CC(CN2CCCCC2)N2CCCCC2)cc1 (stereo unspecified) | 6.8
COc1cc2c(cc1OC)C(C)N(C(=O)c1sc(-c3cnccn3)nc1C)CC2 (stereo unspecified) | 17.8
O=C(NCCc1ccccc1)Nc1cccc(Cl)c1 | 8.9
O=C(c1ccco1)N1CCN(C(=O)c2[nH]ncc2[N+](=O)[O-])CC1 | 8.4
Nc1ccc2nn(-c3ccccc3)nc2c1 | 7.4
Cc1cc(C)nc(SCc2cnc(C)nc2N)n1 | 24.5
COC(=O)NCC(c1ccco1)N1CCN(c2ccccc2)CC1 (stereo unspecified) | 6.0
COC(=O)c1cc(NC(=O)CN(c2ccc(OC)cc2)S(=O)(=O)c2ccc(F)cc2)ccc1Cl | 12.9
CCN(CC)C(=O)CSc1nnc([C@@H](N)C(C)C)o1 | 18.2
Cc1ccccc1N(C(=O)c1csnn1)C(C(=O)NC(C)(C)C)c1ccncc1 (stereo unspecified) | 26.8

# Among those listed so far, 3 have a tert-butyl group:
compound | Calb biofilm kill
CC(C)(C)n1nnnc1C(c1ccc(F)cc1)N1CCC(C(N)=O)CC1 (stereo unspecified) | 16.8
Cc1c(NC(=S)NC(C)(C)C)c(=O)n(-c2ccccc2)n1C | 10.3
Cc1ccccc1N(C(=O)c1csnn1)C(C(=O)NC(C)(C)C)c1ccncc1 (stereo unspecified) | 26.8

# Quoted from the listing:
# Calb biofilm kill with `Nc1ccc2nn(-c3ccccc3)nc2c1` reads 7.4
# Calb biofilm kill with `O=C(c1ccco1)N1CCN(C(=O)c2[nH]ncc2[N+](=O)[O-])CC1` reads 8.4

# More records follow.
compound | Calb biofilm kill
O=C(Nc1nnc(-c2ccccc2)o1)c1cccc(N2C(=O)CCC2=O)c1 | 8.7
NC(=O)c1ccccc1NC(=O)Nc1cccc2ccccc12 | 13.8
CC(C)C(=O)Nc1ccc(-c2ccc3nncn3n2)cc1 | 17.4
CCc1ccc(-c2ccc(SCc3ccccn3)nn2)cc1 | 19.3
Nc1c(C(=O)O)sc2nc(-c3ccccc3)c3c(c12)CCCC3 | 11.2
Cc1cc(C)c(NC(=S)N(C)C)cc1C | 6.8
CCc1cc2cc(C)ccc2nc1SCC(=O)Nc1cc(C)on1 | 15.1
CC(=O)N1c2ccccc2NC2=C(C(=O)CCC2)C1c1ccco1 (stereo unspecified) | 11.7
CCOc1cc(/C=C/c2ccc3cccc([N+](=O)[O-])c3n2)ccc1O | 7.3
CCC(=O)OC1(C)C(=O)C=C2C=C(c3ccsc3)OC=C2C1=O (stereo unspecified) | 11.5
N/C(=N\O)c1ccncc1 | 22.0

# This is a subset (hit frequency here may not be typical).
